# CBX7 AlphaScr: inhibitors of human CBX7 binding to H3K27me3 peptide | normalised signal (fraction of DMSO) (no concentration beside the values) | AlphaScreen His6-CBX7 / biotin-H3K27me3 peptide binding; hits give low values | hit rate 1.1% among 66,000 | O95931; in the data active = normalised signal below about 0.5;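 also: 100 nL library stock added to about 20 µL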
# Target sequence (O95931 whole entry, looked up): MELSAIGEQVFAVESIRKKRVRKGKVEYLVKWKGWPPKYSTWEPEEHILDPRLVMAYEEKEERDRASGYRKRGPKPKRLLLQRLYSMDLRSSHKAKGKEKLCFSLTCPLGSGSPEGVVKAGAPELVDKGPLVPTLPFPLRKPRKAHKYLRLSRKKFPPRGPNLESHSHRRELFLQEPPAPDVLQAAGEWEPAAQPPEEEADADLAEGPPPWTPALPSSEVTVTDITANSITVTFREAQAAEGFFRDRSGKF
# CBX7 AlphaScr z-score: recorded beside CBX7 AlphaScr, whose call it bears; z-score; measured here: z-score of CBX7 signal; some inactives read as strong as hits; reference of the scale not given here;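 same signal on another scale; lower means less binding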
# Active calls of the source: *. This is a subset. The share of hits here may be higher or lower than overall.
# Each structure is followed by: CBX7 AlphaScr z-score, CBX7 AlphaScr
> CCOC(=O)c1c(C)nc(Nc2nc3ccccc3o2)nc1C
 : 0.0043, 1
> CCOc1ccc2nc(N3CCC(C(=O)NC(CC)Cc4ccccc4)CC3)sc2c1 (stereo not drawn)
 : 0.12, 1.1
> CC1CC(C)CN(C(=O)CNC(=O)Cn2cnc3c(c2=O)C2CCCCC2S3)C1 (stereo not drawn)
 : -0.31, 0.98
> Cc1ccc(S(=O)(=O)N2CC=C(C(=O)Nc3ccc(Br)cc3F)CC2)cc1
 : 1.7, 1.2
> O=C(NCc1ccc(F)cc1)c1cccnc1C(=O)O
 : 1.1, 1.1
> Cc1ccnc(NS(=O)(=O)c2ccc(NC(=O)c3ccccc3Br)cc2)n1
 : 0.42, 1
> Brc1ccc2[nH]c3c(c2c1)CN(Cc1ccccc1)CC3
 : -4.4, 0.84
> CCCC1(O)CC(c2cc(OC)ccc2OC)NC(c2cc(OC)ccc2OC)C1C (stereo not drawn)
 : -0.78, 0.88
> CC(C)c1ccc(NC(=O)C2C3C=CC4(CN(Cc5cccnc5)C(=O)C24)O3)cc1 (stereo not drawn)
 : 0.025, 1
> CCCC1=Nc2cc(C(=O)NCCCN3CCCCC3CC)ccc2Sc2ccc(C)cc21 (stereo not drawn)
 : -2.3, 0.79
> O=C1CN(C(=O)c2ccc(S(=O)(=O)N3CCOCC3)cc2)C(c2ccccc2)c2cc(F)ccc2N1 (stereo not drawn)
 : -1.1, 0.96
> CN(C)C(=O)Nc1ccc(OCc2nc(C(C)(C)C)no2)c(Cl)c1
 : -2.6, 0.82
> CC(C)c1ccc(NC(=O)CCNC(=O)Cn2ccc3ccccc3c2=O)cc1
 : -1.1, 0.95
> O=C1CCc2cc(S(=O)(=O)NC(C(=O)Nc3ccc4c(c3)OCCO4)c3ccccc3)ccc2N1 (stereo not drawn)
 : -1.2, 0.97
> COc1ccc(OC)c(Nc2nc(-c3cccc(N4C(=O)c5ccccc5C4=O)c3)cs2)c1
 : -1.8, 0.88
> CC1CCCCC1NC(=O)CCc1cn(Cc2ccccc2)c2ccccc12 (stereo not drawn)
 : 1, 1
> COc1ccc(OC)c(Nc2nc3nonc3nc2Nc2cccc(C)c2)c1
 : 0.43, 1
> Cc1nc2ccccn2c1-c1csc(Nc2ccccc2)n1
 : 1.2, 1
> CC(NC(=O)c1cccnc1)C(c1cccs1)N1CCOCC1 (stereo not drawn)
 : -0.56, 0.98
> CCOC(=O)c1cnc2c(C)cc(Cl)cc2c1Nc1cccc(Cl)c1
 : 0.14, 1
> Cc1cc(=O)n2[nH]c(-c3ccc(Cl)cc3)cc2n1
 : -1.3, 0.93
> CC(=O)Nc1cc(-c2nc3ncccc3o2)ccc1Cl
 : 1.7, 1.1
> C=CCN1C(=O)c2ccccc2Sc2ccc(C(=O)NCc3ccc(OC)cc3)cc21
 : -0.066, 0.93
> O=C(Cc1ccccc1)Nc1ncc(Cc2ccc(Br)cc2)s1
 : 0.8, 1.1
> Cc1ccc2nc(-c3ccc(NC(=O)c4cccc(OCCC(C)C)c4)cc3)sc2c1
 : 0.69, 1
> CC1CCCCC1NC(=O)c1cc2sccc2n1Cc1ccc(F)cc1 (stereo not drawn)
 : 0.31, 1
> CCCc1cc(=O)[nH]c(SCC(=O)Nc2ccc(Br)cc2)n1
 : -0.43, 0.98
> CC(=O)Nc1ccc(NS(=O)(=O)c2ccc3[nH]cc(C(=O)O)c(=O)c3c2)cc1
 : -6.7, 0.66
> COc1cccc(-c2nc(CS(=O)(=O)CC(=O)NC3CCCCC3C)c(C)o2)c1 (stereo not drawn)
 : 0.69, 1
> CCOc1ccc(NC(=O)Cn2cc(S(=O)(=O)c3ccc(Cl)cc3)c(=O)c3ccccc32)cc1
 : -0.16, 0.99

# Molecules listed so far that contain a Cl atom:
# Each structure is followed by: CBX7 AlphaScr z-score, CBX7 AlphaScr
> CN(C)C(=O)Nc1ccc(OCc2nc(C(C)(C)C)no2)c(Cl)c1
 : -2.6, 0.82
> CCOC(=O)c1cnc2c(C)cc(Cl)cc2c1Nc1cccc(Cl)c1
 : 0.14, 1
> Cc1cc(=O)n2[nH]c(-c3ccc(Cl)cc3)cc2n1
 : -1.3, 0.93
> CC(=O)Nc1cc(-c2nc3ncccc3o2)ccc1Cl
 : 1.7, 1.1
> CCOc1ccc(NC(=O)Cn2cc(S(=O)(=O)c3ccc(Cl)cc3)c(=O)c3ccccc32)cc1
 : -0.16, 0.99

# Next part
# Each structure is followed by: CBX7 AlphaScr z-score, CBX7 AlphaScr
> CC(NS(=O)(=O)c1ccccc1)C(c1cccs1)N1CCN(C)CC1 (stereo not drawn)
 : -0.88, 0.96
> Cc1ccc(C)c(CN2C(=O)CSc3ccc(C(=O)NCCCN4CCCCC4)cc32)c1
 : 3.3, 1.1
> O=C(CN1CC(c2ccccc2)CC1=O)Nc1ccc2c(c1)OCCO2 (stereo not drawn)
 : 0.68, 1
> Fc1ccc(Nc2nc(-c3ccccc3F)nc3ccccc23)cc1Cl
 : 1.7, 1.1
> O=C(Nc1cccnc1Cl)C1CC(c2ccc(F)cc2)=NO1 (stereo not drawn)
 : 2, 1
> CCCCOc1ccc(C(C)NC(=O)CSCc2nc(-c3ccccc3F)oc2C)cc1 (stereo not drawn)
 : -2.3, 0.86
> Cc1ccc(C)c2[nH]c(=O)c(CCNC(=O)c3ccccc3)cc12
 : 0.87, 1.1
> CCn1cc(C(=O)NC2CCCCC2C)c(=O)c2ccc(C)nc21 (stereo not drawn)
 : 0.67, 1.1
> Cc1ccc(-c2nc3ccccc3o2)cc1N
 : -0.98, 0.94
> Cc1c(C(=O)N2CCCCCC2)oc2ccc(S(=O)(=O)N3CCC4(CC3)OCCO4)cc12
 : 1.8, 1.2
> CCN(CCNC(=O)c1cc(=O)[nH]c2ccc(S(=O)(=O)N3CCCCC3C)cc12)c1ccccc1 (stereo not drawn)
 : -7.8, 0.84
> Cc1ccc(CN2C(=O)N(c3ccc(F)cc3)C(=O)C2CC(=O)Nc2ccc(Cl)cc2)cc1 (stereo not drawn)
 : 1.6, 1
> Cc1ccc(Cl)cc1N1CCN(C(=O)Cc2ccc(-n3c(=O)[nH]c4ccsc4c3=O)cc2)CC1
 : 0.062, 1
> CC1(C)CC(=O)c2c(oc3c(Cl)cc(NS(=O)(=O)c4ccc(Cl)cc4)cc23)C1
 : 0.034, 1
> O=C(CSc1nnc(-c2ccccc2)o1)NC1CCCCC1
 : 1.3, 1.1
> CC(=O)Nc1ccc(S(=O)(=O)N=C(N)Nc2nc(C)c3ccccc3n2)cc1
 : 0.13, 1
> Cc1ccc(C)c(CS(=O)(=O)CC2Nc3ccc(C(=O)O)cc3NC2=O)c1 (stereo not drawn)
 : 1.7, 1.1
> CC(NC(=O)CCn1nc(-c2ccccc2)c2ccccc2c1=O)c1ccccc1 (stereo not drawn)
 : 2.3, 1.1
> Cc1cccc(-n2c(Cc3cc(=O)[nH]c(=O)[nH]3)nnc2SCC(=O)Nc2nccs2)c1
 : 2.1, 1.1
> O=S(=O)(c1ccc(Cl)cc1)c1nc(Cc2ccccc2)oc1N1CCOCC1
 : -2.7, 0.92
> COC(=O)CNC(=O)c1cn(C)c(=O)c2cc(OC)c(OC)cc12
 : 1.3, 1
> CCOC(=O)c1nnn(-c2nonc2-c2ccccc2)c1C
 : 1.4, 1.1
> CCCCOC(=O)c1ccc(N2C(=O)CC(NCCc3ccc(OC)cc3)C2=O)cc1 (stereo not drawn)
 : 3.4, 1.1
> Cc1cc(C)n2c(Br)c(CSc3nc4ccccc4o3)nc2n1
 : -1.1, 0.95
> CCOc1ccc(N2C(=O)c3ccccc3C2Nc2ccccc2OC)cc1 (stereo not drawn)
 : 0.092, 1
> CCC(C)NC(=O)c1ncc(C(=O)Nc2ccc(C)c(Cl)c2)c2ccccc12 (stereo not drawn)
 : 0.56, 1.2
> Cc1nc2c(C(=O)NCCc3ccccc3)c[nH]n2c(=O)c1Cc1cccc(Cl)c1
 : -1.9, 0.8
> CN(CC(=O)Nc1n[nH]c(=S)s1)S(=O)(=O)c1cccc2cccnc12
 : -0.92, 0.97
> CC(C)(C)c1nnc(Nc2ccc(Cl)c(Cl)c2)[nH]c1=O
 : 0.41, 1.2
> Fc1ccc(Nc2nc(-c3ccccc3F)nc3ccccc23)c(F)c1
 : -0.11, 1
> CCOC(=O)c1c(NC(=O)COc2ccc(F)cc2)sc2c1CCC(CC)C2 (stereo not drawn)
 : -0.89, 0.9
> COCCNC(=O)c1ccc2c(c1)ncn2-c1ccc(OC)cc1
 : -0.36, 0.97
> CCOC(=O)c1oc2ccccc2c1NC(=O)COc1ccc(C(C)C)cc1
 : 5, 1.1
> Cc1ccc(NC(=O)c2ccc3c(c2)N(Cc2ccc(F)cc2)C(=O)CS3=O)c(C)c1 (stereo not drawn)
 : -0.82, 0.95
> COC(CNC(=O)c1cc(-c2ccccn2)nc2ccc(S(=O)(=O)N3CCC(C)CC3)cc12)OC
 : -1, 0.96
> Cc1ccc(-c2cc(C(F)F)n3ncc(C(=O)N4CCCCC4C)c3n2)cc1 (stereo not drawn)
 : 0.64, 1
> Cc1ccc(S(=O)(=O)Nc2ccc(-c3cn4cccc(C)c4n3)cc2)cc1C
 : -1.5, 0.96
> Cc1cc(F)ccc1NC(=O)CN1C(=O)CCSc2ccccc21
 : -0.68, 0.98
> O=C(CSc1nnc(-c2ccccc2O)o1)c1ccccc1
 : -0.24, 0.98
> Cc1ccc(-n2nc3c(c2NC(=O)c2ccc(Br)cc2)CSC3)c(C)c1
 : -0.99, 0.96
> Cc1cc(NS(=O)(=O)c2ccc3c(c2)CCC(=O)N3)ccc1Br
 : -0.8, 0.97
> CC1CCN(C(=O)C(Cc2ccccc2)NS(=O)(=O)c2ccc3c(c2)CCC(=O)N3)CC1 (stereo not drawn)
 : -0.34, 0.98
> COc1cccc(CNC(=O)CN(C)S(=O)(=O)c2ccc3c(c2)n(C)c(=O)c(=O)n3C)c1
 : 0.71, 1.1
> FC(F)(F)c1nc2ccccc2n1CCOc1ccccc1
 : 0.99, 1.1
> O=C(Nc1nc(-c2ccc(Cl)c(Cl)c2)cs1)c1cccs1
 : -1.6, 0.93
> COc1ccc(Nc2cc(C(=O)NCCc3ccc(OC)c(OC)c3)c3ccccc3n2)cc1
 : -0.67, 0.85
> O=C(NCc1ccc2c(c1)OCO2)c1cc(Sc2ccccc2Cl)nc2ccccc12
 : -1.3, 0.94
> COc1ccc(-n2c(=O)cc(N3CCN(c4ccccc4OC)CC3)[nH]c2=O)cc1
 : 0.95, 1.1
> CCOC(=O)C1CCN(C(=O)c2cccc(NC3=NC4CS(=O)(=O)CC4S3)c2)CC1 (stereo not drawn)
 : -0.97, 0.91
> FC(F)(F)c1cccc(N2CCN(c3ccc4nncn4n3)CC2)c1
 : 0.57, 1
> CCOCCCNC(=O)c1ccc2c(c1)nc(C)n2-c1cccc(OC)c1
 : -1.1, 0.96
> COc1ccc(C2C(C(=O)Nc3ccc(F)cc3)c3cc(OC)c(OC)cc3C(=O)N2C)cc1 (stereo not drawn)
 : 1.3, 1.1
> CCCCOc1ccccc1NC(=O)CC1Nc2ccccc2NC1=O (stereo not drawn)
 : 0.074, 1.1
> CCOC(=O)c1cc(-c2ccccc2)n(CCC(=O)Nc2cc(Cl)ccc2OC)c1C
 : -0.44, 0.98
> CCOC(=O)c1ccc(-n2nnnc2C(c2ccc(Cl)cc2Cl)N2CCOCC2)cc1 (stereo not drawn)
 : 0.06, 1
> COc1ccc(C(=O)NCCc2c(C)[nH]c3ccc(OC(F)(F)F)cc23)cc1OC
 : -3.2, 0.78
> CCOc1ccc(Sc2cc(C(=O)NCc3cccnc3)c3ccccc3n2)cc1
 : -0.29, 0.99
> CCCCNC(=O)c1cc(Nc2ccc(OC)cc2)nc2ccccc12
 : -0.013, 0.99
> O=C(Nc1nnc(-c2ccccc2Cl)s1)c1ccc(S(=O)(=O)N2CCCCC2)cc1
 : -1.6, 0.93
> CCOc1ccc(Nc2nc(C)c(C(C)=O)s2)cc1
 : -4, 0.75

# More entries.
# Each structure is followed by: CBX7 AlphaScr z-score, CBX7 AlphaScr
> CCOc1ccc(-c2cc(C(=O)N3CCC(C)CC3)c3ccccc3n2)cc1
 : -1.9, 0.93
> Cc1ccc2c(C)nc(Nc3nc(O)c(C)c(=O)[nH]3)nc2c1
 : -5.5, 0.84
> CCOc1ccc(C(=O)Nc2cccc(NC(=O)c3ccc(C(C)(C)C)cc3)c2)cc1Br
 : -0.064, 0.99
> CCOC(=O)N1CCC(NC(=O)CSCc2nc(-c3cccc(OC)c3)oc2C)CC1
 : 1.1, 1.1
> COc1ccccc1NC(=O)c1c(Br)cnn1C
 : 0.69, 1.1
> CN(c1nc(-c2ccccc2F)nc2ccccc12)C1CCCCC1
 : -3.1, 0.88
> Cc1cccc(N(C)C(=O)c2cc3c(s2)-c2ccccc2OC3)c1
 : -0.33, 0.99
> CCC(=O)NCCCc1nc2ccccc2n1CC(C)C
 : 2.3, 1.2
> Cc1noc(/C=C/c2cccs2)c1S(=O)(=O)N1CCCC(C(=O)Nc2ccccn2)C1 (stereo not drawn)
 : 0.41, 1
> Cc1ccc(Nc2ncc(F)c(Nc3ccc(C)c(C)c3)n2)cc1C
 : -0.33, 0.93
> Fc1ccccc1CNCCC(Cc1ccccc1)c1ccc2c(c1)OCO2 (stereo not drawn)
 : -0.012, 1
> O=C(Cn1nc(-c2ccc(Cl)cc2)ccc1=O)NCc1ccccc1Cl
 : 0.25, 1
> COc1ccc(N2CCN(CCCNC(=O)Nc3ccccc3Cl)CC2)cc1
 : -1.4, 0.83
> CC(C)OCCCNC(=O)C1CC(=O)N(CCc2ccccc2)C1 (stereo not drawn)
 : 0.64, 1
> NS(=O)(=O)c1ccc(CCNc2ncnc3c2c(-c2ccccc2)cn3-c2ccc(Br)cc2)cc1
 : 0.073, 1
> Cn1c(=O)[nH]c(=O)c2c1nc(CN1CCN(Cc3ccccc3)CC1)n2CCc1ccccc1
 : -0.067, 1

# By substructure, the entries above with a tert-butyl group.
# Each structure is followed by: CBX7 AlphaScr z-score, CBX7 AlphaScr
> CN(C)C(=O)Nc1ccc(OCc2nc(C(C)(C)C)no2)c(Cl)c1
 : -2.6, 0.82
> CC(C)(C)c1nnc(Nc2ccc(Cl)c(Cl)c2)[nH]c1=O
 : 0.41, 1.2
> CCOc1ccc(C(=O)Nc2cccc(NC(=O)c3ccc(C(C)(C)C)cc3)c2)cc1Br
 : -0.064, 0.99

# Assay outcomes from PubChem BioAssay.
